VACV mCherry inh: qHTS for Stage-Specific Inhibitors of Vaccinia Orthopoxvirus: mCherry Reporter Primary qHTS; Vaccinia virus mCherry reporter infection, fluorescence; about a quarter of the inactives have no number; actives 0.63% (n = 310,000); Potency, µM (top dose mostly 36.5 µM), for inactives: at the top dose activity change, negative = inhibition, usual class: inhibitors; AID 720579, 2013; active = well fitted inhibition curve with a large enough effect; inconclusive = small, poorly fitted or top-dose-only effect; inactive = no such curve, though single readings can be large or run the other way; tested in A549 cells; further: nearly all actives have a fitted effect of over 35% in size; inactives centre near -10
Vaccinia Venus: qHTS for Stage-Specific Inhibitors of Vaccinia Orthopoxvirus: Venus Reporter Primary qHTS. Vaccinia virus Venus reporter expression, fluorescence. actives 0.46% (n = 330,000). Potency, µM (titrated, usually from 36.5 µM), inactives show at the top dose activity change, negative = inhibition, usual class: inhibitors. AID 720580, 2013; active means well fitted inhibition curve with a large enough effect; inconclusive means small, poorly fitted or top-dose-only effect; inactive means no such curve, though single readings can be large or run the other way; tested in A549 cells; further: nearly all actives have a fitted effect of over 30% in size; inactives centre near -10
Numbers without * were called inactive; i = inactive; ? = inconclusive; . = no result given; [ ] = dose if it differs, or a comment. On the % scale 0 is the no-effect control and ±100 the full control effect; potency means the concentration at half of the fitted maximal effect. Compounds as they come (roughly 0.87% active in at least one column).

nr	mol	VACV mCherry inh	Vaccinia Venus
1	NC12NC(=O)C3(O)C4C5CC(C6C5C3C61)C42 (stereo not drawn)	6%	6%
2	Cc1ccc2[nH]c(C)c(CCNC(=O)C3CCCCC3C(=O)OCC(F)(F)F)c2c1 (stereo not drawn)	-16%	-11%
3	CCOC(=O)Oc1ccc2c(=O)c(Oc3cccc(C)c3)coc2c1	i	-3%
4	Cc1ccc(C)c(Cn2ncc3ccccc32)c1	-10%	3%
5	CC(=O)N1C[C@H]2CON(C)[C@H]2C[C@H]1c1ccc(-c2cccnc2)cc1	-9%	-6%
6	COc1ccc(CCNC(=O)CS(=O)(=O)c2cn(CC(=O)N(C(C)C)C(C)C)c3ccccc23)cc1OC	-2%	-17%
7	CCC(C)NC(=O)CNS(=O)(=O)c1ccc(C)cc1 (stereo not drawn)	.	-6%
8	COc1cc(OC)c(NC(=O)CSc2nc3ccncc3[nH]2)cc1Cl	-6%	?

Whole records from above. Values in the order: VACV mCherry inh, Vaccinia Venus
COc1cc(OC)c(NC(=O)CSc2nc3ccncc3[nH]2)cc1Cl in the list: -6%, ?
COc1ccc(CCNC(=O)CS(=O)(=O)c2cn(CC(=O)N(C(C)C)C(C)C)c3ccccc23)cc1OC in the list: -2%, -17%
CC(=O)N1C[C@H]2CON(C)[C@H]2C[C@H]1c1ccc(-c2cccnc2)cc1 in the list: -9%, -6%
CCC(C)NC(=O)CNS(=O)(=O)c1ccc(C)cc1 (stereo not drawn) in the list: ., -6%

Continuation:
nr	mol	VACV mCherry inh	Vaccinia Venus
9	COCCn1c(C)cc(C2=NNC(=Nc3ccc(OC)cc3)SC2)c1C	-14%	-2%
10	Cc1ccc(-c2nc(SCC(=O)NCc3ccco3)c3c(=O)n(C)c(=O)n(C)c3n2)cc1	-1%	-5%
11	O=C(C1CC1)N1CCN(c2ccc(O)cc2)CC1	-7%	0%
12	O=C(c1ccco1)N1CCN(C(=O)c2ccc(Br)o2)CC1	-25%	-14%
13	Cc1ccccc1NC(=O)c1ccc(CN2CCC(Cc3ccccc3)CC2)cc1	.	?
14	COC(=O)C(C)NC(=O)C12CC3CC(CC(C3)C1)C2 (stereo not drawn)	.	-8%
15	O=C(c1cc(Cl)cc(Cl)c1)N1CCOCC1	-10%	-5%
16	COc1ccc(NC(=O)CN(C)C(=O)CCCc2c[nH]c3ccccc23)cc1	-2%	-12%
17	COCCCNC(=O)COc1ccc(S(=O)(=O)Nc2ccccc2)cc1	.	-10%
18	CC(C)=CCc1c2c(c3occ(-c4ccc(O)c(O)c4)c(=O)c3c1O)C=CC(C)(C)O2	10µM*	11µM*
19	COC(=O)c1cc(NC(=O)c2ccc(OC)cc2)c(=O)oc1C	8%	-3%
20	COc1cccc(C(=O)Nc2ccc(NC(=O)c3ccco3)c(Cl)c2)c1	-22%	-18%
21	CC(=O)Nc1ccc(NC(=O)CCCc2nc(-c3ccc(C(C)(C)C)cc3)no2)cc1	-5%	-14%
22	CCn1c(O)c(N=Nc2ccc(S(=O)(=O)N3CCOCC3)cc2)c(=O)n(CC)c1=S	-19%	-10%
23	CCOc1ccc(CNS(=O)(=O)c2ccc3[nH]c(=O)ccc3c2)cc1	2%	-4%
24	CCCCC(=O)NC(Nc1cc(C)ccn1)(C(=O)OCC)C(F)(F)F (stereo not drawn)	.	-5%
25	CCS(=O)(=O)c1nc(S(=O)(=O)c2ccc(C)cc2)c(NCc2ccc(Cl)cc2)s1	-26%	-19%
26	COc1cc(C(=O)N2CCN(CCCc3ccccc3)CC2)cc(OC)c1OC	-2%	-9%
27	O=C(C1=C[C@@H](c2coc3ccccc3c2=O)C[C@@H](OCCCCO)O1)N1CCN(Cc2ccc3c(c2)OCO3)CC1	-11%	-16%
28	CCOC(=O)c1cc(C)n(CC2CCC(C(=O)Nc3ccc(OC)c(OC)c3)CC2)c1C (stereo not drawn)	-7%	-12%
29	COC(=O)C1CCN(S(=O)(=O)c2cn(C)c(=O)n(C)c2=O)CC1	-12%	-1%
30	CCc1ccc(NC(=O)C2CCCN(S(=O)(=O)c3ccc4c(c3)CCCN4C(C)=O)C2)cc1 (stereo not drawn)	-16%	-13%
31	O=C(NCC1CCCO1)C1CCN(C(=O)c2ccc(Br)cc2)CC1 (stereo not drawn)	i	1%
32	COc1ccc(CCNC(=O)CCCn2c(=O)c3ccccc3n(CC(=O)Nc3cccc(C)c3)c2=O)cc1OC	1%	-4%
33	Cc1ccc(NC(=O)CSc2nccn2Cc2ccco2)c(C)c1	-9%	-13%
34	COc1cc(/C=N/NC(=O)c2ccc3nc[nH]c3c2)cc(OC)c1OC	0%[7.34 µM]	-4%[7.34 µM]
35	CCOc1ncccc1C(=O)N1CCN(c2cccc(C)c2C)CC1	-12%	?
36	CCOC(=O)C1CCN(CC(=O)N2C(C)CCCC2C)CC1 (stereo not drawn)	-12%	-3%
37	CC(=O)Nc1cccc(-c2ccnc3c2CC(C)(C(=O)Nc2cccnc2)O3)c1 (stereo not drawn)	-13%	-7%
38	O=C(O)CN=C(NS(=O)(=O)c1ccccc1)c1ccccc1	.	0%
39	Cc1ccc2c(c1)CC1(CN2C)C(=O)NC(=O)N(CCC2=CCCCC2)C1=O (stereo not drawn)	.	-9%
40	Cc1cc(C(=O)Nc2cccc3ccccc23)n(-c2ccccc2)n1	-13%	-6%
41	O=C(COc1ccc2ccc(=O)oc2c1)Nc1cccc(S(=O)(=O)N2CCCCC2)c1	-24%	-7%
42	Cc1nn(CCCC(=O)Nc2cccc(F)c2)c(=O)c2c1sc1ccccc12	-9%	-9%
43	Cc1cnc(C(=O)OCC(=O)NCc2ccc3c(c2)OCO3)cn1	i	5%
44	Cc1cc(=O)oc2cc(NC(=O)C(C)Oc3cccc(Cl)c3)ccc12 (stereo not drawn)	?	?
45	COC(=O)[C@@H](NC(=O)NCc1ccccc1Cl)C(C)C	-19%	-10%
46	Cc1cc(N2C(=O)c3ccc(C(=O)Nc4ccc(CC(=O)O)cc4)cc3C2=O)no1	-18%	-17%
47	CC1CC(O)(Cc2ccccc2)C(C)CN1C (stereo not drawn)	.	-16%
48	O=C(COC(=O)c1cnc(Cl)c(Cl)c1)NCc1ccc2c(c1)OCO2	0%	0%
49	Cc1cc(C)c2nc(N3CCC(C(=O)NCCN4CCOCC4)CC3)sc2c1	-18%	-14%
50	O=C(O)C1=CC[C@@H](c2ccc(Cl)cc2)N(S(=O)(=O)c2ccc(Cl)cc2)[C@H]1c1cccc(Cl)c1	i	-26%
51	CCn1cnc2cc(NCc3ccc(Br)cc3)ccc21	-17%	-16%
52	C[C@@H](NC(=O)c1nc[nH]c1C(=O)N1CCN(C(=O)OC(C)(C)C)CC1)c1ccccc1	-10%	-3%
53	COc1ccccc1N1CCN(C(=O)Cn2c(=O)n3nc(-c4cccc(C)c4)nc3c3ccccc32)CC1	-5%	-9%
54	COCCN(C(=O)c1ccccc1OC1CCN(S(C)(=O)=O)CC1)C(C)C	i	-3%
55	Cc1oc2ncn(C)c(=O)c2c1C(=O)N1CCN(c2ccccc2)CC1	-3%	0%
56	O=c1[nH]c2ccc(Cl)cc2c(-c2ccccc2)c1SC(=S)N1CCOCC1	.	?
57	O=C1C2C3CCC(O3)C2C(=O)N1CCO (stereo not drawn)	i	-7%
58	COc1ccc(CCn2c(NCCCN3CCOCC3)nc3c2c(=O)[nH]c(=O)n3C)cc1	-14%	-10%
59	COc1cccc(-c2cc(C(=O)NCc3ccco3)c3ccccc3n2)c1	-2%	5%
60	Cc1nnc(SC(C)C(=O)NC2CCCCC2C)s1 (stereo not drawn)	-15%	-9%
61	CC(C)(C)S(=O)N1Cc2cc(C(=O)N3CCOCC3)nc(-c3cccc(Br)c3)c2[C@@H]1CCO (stereo partly drawn)	30%[activator]	12%
62	COc1ccc(C=CC(C)=NNC(=O)c2ccncc2)cc1	i	-19%
63	Cc1nn(-c2ccccc2)c(C)c1C(=O)OCC(=O)Nc1ccccc1	0%	-17%
64	Cc1ccc(S(=O)(=O)N(C)C[C@@H]2Oc3ncc(C#CCC(C)C)cc3C(=O)N([C@H](C)CO)C[C@H]2C)cc1	-14%	?

(continued)
nr	mol	VACV mCherry inh	Vaccinia Venus
65	COc1ccccc1N=C1SC(C(=O)Nc2cccc(Cl)c2Cl)C(N)=C1C(N)=O (stereo not drawn)	?	-16%
66	COCCN(C(=O)COC(=O)c1ccc(Cl)s1)c1c(N)n(Cc2ccccc2)c(=O)[nH]c1=O	-3%	-13%
67	Cc1cc(NC(=O)C2CC(=O)N(c3ccccc3)C2)no1 (stereo not drawn)	-12%	0%
68	O=C(Nc1ccccc1SCC1CSc2nc3ccccc3c(=O)n21)c1ccccc1 (stereo not drawn)	.	-7%
69	COc1ccc(OC)c(C(C)NC(=O)c2ccco2)c1 (stereo not drawn)	-17%	?
70	O=C(COc1ccccc1Cl)NCCCNC(=O)c1ccco1	-12%	-6%
71	CSc1cccc(N2CC(C(=O)N(CC(C)C)c3c(N)n(Cc4ccccc4)c(=O)[nH]c3=O)CC2=O)c1 (stereo not drawn)	-17%	-7%
72	CC(C)N(Cc1nc(-c2ccc(Cl)cc2)no1)C(=O)CCCN1C(=O)c2ccccc2C1=O	-5%	-6%
73	Cc1ccc(CNC(=O)CCCn2c(=O)c3ccccc3n(CC(=O)NC3CCCC3)c2=O)cc1	.	-17%
74	COc1ccccc1C(O)c1ncc(-c2ccc(Cl)cc2)[nH]1 (stereo not drawn)	i	-14%
75	O=C1NC[C@@H](CCCCN2CCN(CCC3CCCCC3)C(=O)C2=O)N(CCC2CCCCC2)C1=O	i	8%
76	COC(=O)C=C1CCC2C3CCC4=CC(=O)CCC4(C)C3C(=O)CC12C (stereo not drawn)	-10%	-5%
77	CCN(CC)C(=O)[C@H]1C[C@H](CC(=O)NC/C=C(\C)CCC=C(C)C)C(=O)N2CCc3c([nH]c4cc(-c5ccco5)ccc34)[C@]12C	?	13µM*
78	Nc1nc(-c2ccc([N+](=O)[O-])cc2)cc(=O)[nH]1	i	-6%
79	CC(C)C[C@H](NC(=O)Nc1ccc(S(N)(=O)=O)cc1)C(=O)O	-13%	-8%
80	COc1ccc(S(=O)(=O)N2CCCC(C(=O)NCC3CCCO3)C2)cc1C (stereo not drawn)	i	-12%
81	O=C(COC(=O)c1ccc(F)cc1Cl)NC1CC1	-16%	-14%
82	O=C1CC(NS(=O)(=O)c2cccnc2)CN1c1ccc(F)cc1 (stereo not drawn)	-11%	-8%
83	COC(=O)C1=C(N)Oc2cc(C)n(Cc3ccco3)c(=O)c2C1c1cccc(Cl)c1 (stereo not drawn)	.	?
84	O=S1(=O)CCC(n2ncc3c2/C(=C/c2ccccc2)CC3)C1 (stereo not drawn)	-11%	-5%
85	CN(C(=O)c1ccc(Cl)c([N+](=O)[O-])c1)C1(C)CCS(=O)(=O)C1 (stereo not drawn)	-18%	-4%
86	CC[n+]1c(/C=C/Nc2ccccc2)sc2ccccc21	-7%	12%
87	FC(F)(F)c1cccc(-c2nc(-c3ccncc3)no2)c1	-7%	-6%
88	CCOc1ccccc1-n1c(O)c(C=NCCCN(CC)CC)c(=O)[nH]c1=O	.	-10%
89	Nc1ccc(CSc2ccc(Cl)cc2)cc1	?	-5%
90	COc1cccc(C(c2sc3nc(-c4ccco4)nn3c2O)N2CCN(C)CC2)c1 (stereo not drawn)	?	?
91	COc1cc(-c2nnc(SCC3(c4ccccc4)OCCO3)o2)cc(OC)c1OC	5%[1.46 µM]	-18%
92	O=C(c1ccc(F)cc1)N1CCN(C(=O)c2ccc([N+](=O)[O-])cc2)CC1	-20%	-15%
93	COc1ccc(C(c2nnnn2CS(=O)(=O)c2ccc(C)cc2)N2CCN(c3ncccn3)CC2)cc1 (stereo not drawn)	-8%	-15%
94	COc1cccc(CN2CCN(C3CSCCSC3)CC2CCO)c1 (stereo not drawn)	-22%	-6%
95	CCNS(=O)(=O)c1ccc(OC)c(C(=O)NC2CCCCC2)c1	i	-13%
96	Cc1ccc(-c2nnn(CC(=O)NCC3CC3)n2)o1	-18%	-16%
97	Cc1cccc(C)c1-n1ncc(C(=O)NCCN2CCOCC2)c1C1CCN(C(=O)OC(C)(C)C)CC1	3%	-6%
98	CCOc1ccccc1N(CC)C(=O)Cn1ncc2c([nH]c3ccccc32)c1=O	-2%	-8%
99	Cc1nnc(OCc2nc3ccccc3n2C)c2ccccc12	.	?
100	CN(Cc1nc(-c2ccccc2)no1)C1CCOCC1	-12%	-18%
101	CCCC/C(O)=C1\C(=O)CC(C)(C)CC1=Nc1ccc(N)cc1	-21%	-14%
102	COc1ccc(C(=O)NNC2=CC(=O)CC(C)(C)C2)cc1OC	-6%	0%
103	CN(C)S(=O)(=O)c1ccc(C(=O)NCC2(N3CCCCC3)CCCCC2)cc1	-11%	-9%
104	Cc1cccc(Cc2cnc(NC(=O)C3=NCCN3)s2)c1	-11%	5%
105	O=C(NCCCCCCNC(=O)ON=C1CCCCC1)ON=C1CCCCC1	-1%[60.7 µM]	-16%[60.7 µM]
106	CC(C)c1ccc(NC(=O)Cn2c(=O)n(Cc3nc(-c4ccccc4)no3)c(=O)c3cc4c(cc32)OCO4)cc1	-11%	-5%

Screen by screen, quoted from above.
Vaccinia Venus, nos. 98–105, in order: -8%, ?, -18%, -14%, 0%, -9%, 5%, -16%[60.7 µM]
VACV mCherry inh, nos. 98–105, in order: -2%, ., -12%, -21%, -6%, -11%, -11%, -1%[60.7 µM]
